Cruzain noTriton – qHTS Assay for Promiscuous and Specific Inhibitors of Cruzain (without detergent) | Cruzipain (Trypanosoma cruzi), P25779 | purified cruzain, Z-FR-AMC fluorescence, no detergent | Potency, µM, without a hit: max response, negative = inhibition, usual class: inhibitors | 200,000 compounds, 2.3% hits | AID 1476, 2009;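 note: plate controls were enzyme without inhibitor for no effect and buffer without enzyme for full effect; nearly all actives have a fitted effect of over 40% in size; top concentration of the series not given in the record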
Target sequence (P25779 123-467 limits assumed): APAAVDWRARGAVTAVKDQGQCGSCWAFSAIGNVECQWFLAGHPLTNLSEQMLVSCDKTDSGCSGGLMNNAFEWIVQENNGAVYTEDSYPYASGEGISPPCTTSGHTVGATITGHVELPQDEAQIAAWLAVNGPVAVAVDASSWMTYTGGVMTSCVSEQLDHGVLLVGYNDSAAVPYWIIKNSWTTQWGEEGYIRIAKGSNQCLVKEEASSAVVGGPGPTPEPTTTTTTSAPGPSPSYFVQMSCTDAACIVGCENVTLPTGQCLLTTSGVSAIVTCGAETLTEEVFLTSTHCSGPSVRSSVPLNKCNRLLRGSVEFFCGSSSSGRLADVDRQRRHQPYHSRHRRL
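Purified cruzain at 1.5 nM, pre-incubated 15 min with compound at room temperature in 100 mM sodium acetate pH 5.5, 5 mM DTT, 0.00005% Triton X-100. Reaction started with 2 uM Z-FR-AMC; AMC fluorescence increase over 60 s gives rate.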
NS1 inh – qHTS Assay for Inhibitors of Influenza NS1 Protein Function | S. cerevisiae slowed by influenza A NS1, growth recovery by OD600 | Potency, µM (top dose mostly 46.1 µM), inactives show at the top dose activity, positive = more growth | 270,000 compounds, 0.4% hits | AID 2326, 2010; active means well fitted rising curve with a large enough effect; inconclusive means small, poorly fitted or top-dose-only effect; inactive means no such curve, though single readings can be large or run the other way; note: nearly all actives have a fitted effect of over 50% in size
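In this qHTS, NS1 from influenza A is expressed in budding yeast, where it slows growth. Cells are switched from glucose to 2% galactose medium (pH 6.0, -URA), treated with compound, and growth recovery is read at OD600.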
Cruzain Triton – qHTS Assay for Promiscuous and Specific Inhibitors of Cruzain (with detergent); purified cruzain, Z-FR-AMC fluorescence, 0.01% Triton; 200,000 compounds, 0.43% hits; Potency, µM, inactives show max response, negative = inhibition, hits mostly inhibitors;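 note: plate controls were neutral wells for no effect and buffer without enzyme for full effect; nearly all actives have a fitted effect of over 40% in size; top concentration of the series not given in the record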
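Cruzain (1.5 nM) preincubated 15 min at RT with compound in 100 mM sodium acetate pH 5.5, 5 mM DTT, 0.01% Triton X-100. Reaction started with 2 uM Z-FR-AMC; AMC fluorescence (ex 360/em 450 nm) change over 60 s gave rate.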
2A StopGo – High Throughput Screening for Foot and Mouth Disease Virus Antivirals; human cells with a luciferase reporter of 2A StopGo recoding; control for the full effect not named in the record; Potency, µM (doses to about 57.9 µM), for the others: top-dose signal change, negative = less light; 410,000 compounds, 1.2% hits; AID 1159524, 2015; active = well fitted falling curve with a large enough effect; inconclusive = small, poorly fitted or top-dose-only effect; inactive = no such curve, though single readings can be large or run the other way; tested in HEK293T cells; note: % is set by controls: 0 for no effect and ±100 for the full control effect; nearly all actives have a fitted effect of over 45% in size; luciferase light after 4 h
SARS PLP yeast – qHTS of Yeast-based Assay for SARS-CoV PLP; S. cerevisiae expressing SARS-CoV PLpro, growth rescue; control for the full effect not named in the record; Potency, µM (highest dose often 32.9 µM), for the others: top-dose activity, positive = growth rescue; 330,000 compounds, 0.19% hits; AID 485353, 2010; active means well fitted rising curve with a large enough effect; inconclusive means small, poorly fitted or top-dose-only effect; inactive means no such curve, though single readings can be large or run the other way; note: 0% is about no effect; nearly all actives have a fitted effect of over 55% in size; growth read by luminescence after 48 h
Marburg entry inh – qHTS for inhibitors of binding or entry into cells for Marburg Virus | Marburg virus pseudotyped entry inhibition, cell reporter; control for the full effect not named in the record; about a third of the inactives were read at about 46 µM | Potency, µM (doses to about 37.8 µM), without a hit: at the top dose activity change, negative = inhibition, most hits filed as inhibitors | 300,000 compounds, 1.8% hits | AID 540276, 2011; active = well fitted inhibition curve with a large enough effect; inconclusive = small, poorly fitted or top-dose-only effect, or effect the other way; inactive = flat fitted curve, though single readings scatter; tested in HEK293 cells; about a fifth of its hits are not listed in these tables; note: % is set by controls: 0 for no effect and ±100 for the full control effect; luciferase read-out
RE007 growth inh – qHTS Assay for Inhibitors of the HIV-1 protein Vpr; S. pombe RE007 Vpr strain, BacTiter-Glo ATP luminescence, 24 h; control for the full effect not named in the record; Potency, µM (highest dose often 92.2 µM), for the others: top-dose activity change, negative = less growth; 360,000 compounds, 0.21% hits; AID 651644, 2012; active = well fitted falling curve with a large enough effect; inconclusive = small, poorly fitted or top-dose-only effect; inactive = no such curve, though single readings can be large or run the other way;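 note: % is set by controls: 0 for no effect and ±100 for the full control effect; nearly all actives have a fitted effect of over 50% in size; the assay follows cell death caused by Vpr and the record does not say whether a fall means rescue or toxicity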
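Fission yeast strain RE007, carrying one chromosomally integrated HIV-1 vpr copy, was seeded at OD 0.01 in PMG+AL medium with 23 nL pinned compound. After 24 h at 30 °C and 99% humidity, viability was read by BacTiter-Glo luminescence.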
LASV entry inh – qHTS for Inhibitors of binding or entry into cells for Lassa Virus; Lassa virus pseudotype entry inhibition, cell reporter; control for the full effect not named in the record; Potency, µM (series often up to 37.9 µM), for the others: at the highest dose activity change, negative = inhibition, actives largely listed as inhibitors; 300,000 compounds, 1.2% hits; active means well fitted inhibition curve with a large enough effect; inconclusive means small, poorly fitted or top-dose-only effect, or effect the other way; inactive means flat fitted curve, though single readings scatter; tested in HEK293 cells; note: % is set by controls: 0 for no effect and ±100 for the full control effect; nearly all actives have a fitted effect of over 50% in size; luciferase read-out
* hit, by the source's call; ? = inconclusive; . = no result given; & = joins results of further samples; [ ] = dose if it differs, or a comment. Unless noted, calls come from the whole dose curve; as a rule, active = well fitted curve in the direction sought with a large enough effect; inconclusive = small, poorly fitted or top-dose-only effect, or another doubt; inactive = no such curve, though single readings can be large; an effect the other way counts as inactive or inconclusive. Potency is the fitted concentration of half-maximal effect.

The line under a structure holds: Cruzain noTriton, NS1 inh, Cruzain Triton, 2A StopGo, SARS PLP yeast, Marburg entry inh, RE007 growth inh, LASV entry inh
- CCCCNC(=O)NC1(C(F)(F)F)Oc2ccccc2O1
    ?, 0%, 7.5%, 0%, -7%, -26%, -2%, ?
- CCOC(=O)c1ccc(-n2ccnc2)c(NC(=O)c2cccc(Br)c2)c1
    4%, 1%, -4.2%, -11%, 10%, ?, 7%, -7%
- Cc1ccccc1-c1nnc(-c2ccccc2C)o1
    8%, -12%, -6.2%, 41%[activator], -36%, -3%[46.1 µM], 3%, -20%
- O=C(CCSCc1ccc(Cl)cc1)NCc1ccc(F)cc1Cl
    -26%, ., 0.1%, -19%, ., ., ., 1%[46.1 µM]
- CCn1c(-c2ccccn2)nc2cc(S(=O)(=O)N(C)C)ccc21
    ., -18%, ., 20%, 4%, 1%, 15%, -10%
- CCOCCCNC(=O)c1ccc(NC(=O)C2CCCO2)cc1 (stereo unspecified)
    ., 10%, ., 0%, 3%, ., 1%, .
- CN(C)S(=O)(=O)c1cc(NC(=O)COC(=O)Cc2ccc(Br)cc2)ccc1Cl
    6%, 10%, -6.3%, -16%, 12%, 5%, 5%, 14%
- Cc1ccc(S(=O)(=O)N2CCN(C(=O)c3ccc(N4CCCCC4)c([N+](=O)[O-])c3)CC2)cc1
    ., 7%, ., -9%, 4%, ?, 5%, ?
- Clc1ccc(CN2CCN(c3ncnc4sc5c(c34)CCCC5)CC2)cc1Cl
    6%, ., 3.4%, -30%, ., ., ., 1%[46.1 µM]
- CCOc1ccc(/C=C2\SC(=S)N(C)C2=O)cc1OC
    ., 4%, ., 24%, 0%, 25%[46.1 µM], 8%, 24%[46.1 µM]
- COC(=O)c1ccc(Nc2cc(C)nc3ncnn23)cc1
    -6%, -2%, -1.0%, 22%, 5%, 29%, 6%, 22%
- CCOc1ccc(OCC)c(S(=O)(=O)N2CCCCC2C)c1 (stereo unspecified)
    ?, -108%, -3.0%, -7%, -3%, ?, -4%, ?
- O=C(Oc1ccc2cc(Br)ccc2c1)N1CCCCCC1
    -5%, 7%, -7.2%, ., -31%, -2%, ., 24%
- C[C@H](NS(=O)(=O)c1ccccc1F)C(=O)OCC(=O)N1CCc2ccccc21
    -7%, -94%, 3.6%, 0%, 0%, 1%, 9%, 10%
- O=C(NCCN1CCN(c2ccc([N+](=O)[O-])cc2)CC1)NCc1ccccc1
    ., 18%, ., -21%, 2%, ., 1%, .

The list goes on:
The line under a structure holds: Cruzain noTriton, NS1 inh, Cruzain Triton, 2A StopGo, SARS PLP yeast, Marburg entry inh, RE007 growth inh, LASV entry inh
- Cn1c(N)c(C(=O)COC(=O)c2cc(S(=O)(=O)N3CCCCC3)ccc2Cl)c(=O)n(C)c1=O
    ?, 6%, -4.2%, 2%, 12%, ?, -5%, 17%
- Cc1ccc(CNC(=O)C(=O)NCCC2=CCCCC2)cc1
    ?, 4%, 0.8%, 48%[activator], 6%, 19%, 2%, 9%
- Cn1cccc1Cc1nnc(SCC(=O)N2CCOCC2)n1CCc1ccccc1
    1%, ?, -0.2%, -5%, 3%, 5%, -2%, 1%
- O=C(CNS(=O)(=O)c1ccc(Br)cc1)NCc1ccncc1
    ., -3%, ., 58%[activator], 5%, 6%[46.1 µM], 7%, 12%
- COC(C(=O)N/N=C/c1ccc(OCC(=O)N2CCOCC2)cc1)c1ccccc1 (stereo unspecified)
    ., 1%, ., 37%[activator], 0%, 14%[46.1 µM], 2%, -1%[46.1 µM]
- CCOc1ccc(OCC)c(NC(=O)C2CCN(S(=O)(=O)c3cccnc3)CC2)c1
    11%, 5%, 7.9%, ., -4%, 16%, -11%, 0%
- Cc1cccn2c(=O)c3cc(C(=O)NC(C)(C)C)n(C)c3nc12
    16%, ., -4.6%, 18%, ., ., ., -6%[46.1 µM]
- O=C(N/N=C/c1ccccn1)c1cccs1
    ., ., ., 46%[activator], -9%, -14%, -14%, -16%
- CCCn1c(N)c(N(CCOC)C(=O)CCC2CCCCC2)c(=O)[nH]c1=O
    ., ., ., 3%, -8%, ?, -20%, ?
- CCN1C[C@]2(COC(=O)c3ccccc3N)CC[C@H](OC)C34[C@@H]5C[C@H]6[C@H](OC)[C@@H]5[C@](O)(C[C@@H]6OC)[C@@](O)([C@H]13)[C@@H](OC)[C@@H]42
    ., 4%, ., -8%, -1%, 0%, -18%, .
- CCN(CC)C(=O)Cn1cc(SCC(=O)NCc2ccco2)c2ccccc21
    ., ., ., -3%, 1%, -19%[46.1 µM], -1%, .
- O=C(OCC(=O)N1CCCc2ccccc21)C1CCN(S(=O)(=O)c2cccs2)CC1
    11%, -11%, -3.4%, -12%, -4%, ?, 20%, 7%
- N/C(=N\OC(=O)c1cccc(Br)c1)c1ccc([N+](=O)[O-])cc1
    ., -11%, ., 13%, -7%, ., 8%, .
- C/C=C/C(=O)Nc1nnc(C(C)C)s1
    4%, -2%, 1.3%, -1%, 0%, ?, -4%, -13%
- O=C(O)c1c(F)c(F)c(F)c(F)c1-c1ccc(Cl)cc1
    -14%, 0%, 2.2%, ., 3%, -2%, 7%, -15%

Complete entries from above.
`Cn1cccc1Cc1nnc(SCC(=O)N2CCOCC2)n1CCc1ccccc1` across the screens: Cruzain noTriton = 1%; NS1 inh = ?; Cruzain Triton = -0.2%; 2A StopGo = -5%; SARS PLP yeast = 3%; Marburg entry inh = 5%; RE007 growth inh = -2%; LASV entry inh = 1%
`Cc1ccc(CNC(=O)C(=O)NCCC2=CCCCC2)cc1` across the screens: Cruzain noTriton = ?; NS1 inh = 4%; Cruzain Triton = 0.8%; 2A StopGo = 48%[activator]; SARS PLP yeast = 6%; Marburg entry inh = 19%; RE007 growth inh = 2%; LASV entry inh = 9%
`COC(C(=O)N/N=C/c1ccc(OCC(=O)N2CCOCC2)cc1)c1ccccc1` (stereo unspecified) across the screens: Cruzain noTriton = .; NS1 inh = 1%; Cruzain Triton = .; 2A StopGo = 37%[activator]; SARS PLP yeast = 0%; Marburg entry inh = 14%[46.1 µM]; RE007 growth inh = 2%; LASV entry inh = -1%[46.1 µM]

Next section:
The line under a structure holds: Cruzain noTriton, NS1 inh, Cruzain Triton, 2A StopGo, SARS PLP yeast, Marburg entry inh, RE007 growth inh, LASV entry inh
- Cc1ccc(CNC(=O)[C@H](C)NC(=O)C2CCN(C(=O)[C@@H](N)CC(C)C)CC2)cc1
    ., 12%, ., 15%, -8%, ., 8%, .
- O=C(CSC1=NCCS1)Nc1cccc(F)c1
    ., -3%, ., -3%, 0%, 1%[46.1 µM], 3%, -29%
- O=C(N/N=C/c1cc([N+](=O)[O-])ccc1O)C1CC1
    ., -72%, ., -11%, -4%, ., -5%, .
- Cn1c(CNC(=O)C2CCCCC2)cc2cc(Cl)ccc21
    ., 24%, ., -15%, -3%, -15%, -16%, -3%
- Cc1nc2ccc(Cl)cc2c(-c2ccccc2Cl)c1CC(=O)O
    12%, 2%, -0.3%, -21%, 28%, -4%, 2%, -2%
- O=Nc1ccc(NOC(=O)c2ccccc2)cc1
    ?, -20%, -8.8%, 0%, 28%, ?, 10µM*, 4%
- CCc1ccc(-n2c(C)nnc2SCc2nc(-c3ccc(OC)cc3)no2)cc1
    24%, ., -7.4%, ?, ., 15%[46.1 µM], ., ?
- O=S(=O)(c1ccc(N2CC=C(c3ccccc3)CC2)nc1)N1CCCC1
    -16%, -6%, -2.1%, ?, 3%, -19%, 3%, 0%
- CC(C)CN(C(=O)c1cc(Cl)nc2ccccc12)C1CCS(=O)(=O)C1 (stereo unspecified)
    ., ., ., -13%, -2%, 11%, 2%, ?
- O=C(N/N=C/c1cccc2ccccc12)c1cccc(F)c1
    ., -19%, ., 27%, -8%, -1%[46.1 µM], -24%, 11%[46.1 µM]
- Cc1sc2nc(SCC(=O)C(C)(C)C)n(Cc3ccco3)c(=O)c2c1C
    0%, 0%, -5.8%, -20%, 7%, ?, -3%, 8.2µM*
- Cc1ccc(C(=O)OCC(=O)NNC(=O)c2ccccc2)c(O)c1
    ., -4%, ., 6%, -5%, 4%[46.1 µM], -6%, 7%
- COc1ccc(C(=O)N2CCCN(C)CC2)cc1S(=O)(=O)N1CCCc2ccccc21
    2%, 5%, -0.8%, 32%[activator], -3%, ?, -2%, -1%
- COc1cccc(-c2cc(C(=O)Nc3cc(C)nn3-c3ccccc3)no2)c1
    1%&-19%, -4%, -1.4%&3.4%, 5%&4%, 4%, -20%&-18%[46.1 µM], -14%, ?
- COc1cccc(C2=CC(c3ccccc3)n3ncnc3N2)c1 (stereo unspecified)
    -13%, -6%, -0.5%, ., 8%, 2%, ., .

Continuation:
The line under a structure holds: Cruzain noTriton, NS1 inh, Cruzain Triton, 2A StopGo, SARS PLP yeast, Marburg entry inh, RE007 growth inh, LASV entry inh
- O=C(Cn1[nH]c(=O)c2ccccc2c1=O)Nc1cccc(S(=O)(=O)N2CCCCCC2)c1
    ., ., ., ?, 0%, -23%[46.1 µM], -13%, 24%
- CS(=O)(=O)Cc1ccc(C(=O)NC2CCSc3ccccc32)cc1 (stereo unspecified)
    ., 16%, ., 10%, 1%, -2%[46.1 µM], -10%, 5%
- O=C(c1cnc(N2CCN(c3ncccn3)CC2)c2ccccc12)N1CCN(c2ccccn2)CC1
    16%, -50%, -2.9%, 28µM*, 4%, ?, 3%, 11µM*
- c1ccc(C2COC(c3cccs3)=N2)cc1 (stereo unspecified)
    0%, -5%, 0.3%, 11%, -1%, 28%, 0%, 0%
- COc1ccc(CN2CCC(=O)N(CCO)CC2)cc1OC
    ., 11%, ., -8%, 1%, ., -8%, .
- Cn1c(Cn2c(=O)sc3ccccc32)nnc1SCC(=O)NCc1ccc2c(c1)OCO2
    -6%, -38%, -1.3%, -9%, 9%, ., 14%, .
